# Source: PubChem
# GLA inh pH 4.5: blocks human alpha-galactosidase A at pH 4.5; purified enzyme, 4-MU-alpha-Gal fluorescence, pH 4.5; activity change, negative = inhibition, % at 105 µM; 230,000 tested, under 10 active; AID 1467; inconclusive = small, poorly fitted or top-dose-only inhibition, or a rising curve; inactive = flat fitted curve, though single readings scatter; no compound was filed as active;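 further: 0% = full activity with enzyme and -100% = basal without enzyme; dose as in the result columns while the protocol names 77 µM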
# Rango release inh: inhibitors of RanGTP-induced Rango-importin beta complex dissociation; Biochemical FRET Rango-importin beta, RanGTP-induced dissociation; 340,000 compounds, 0.071% hits; Potency, µM (series often up to 46.1 µM), for inactives: at the highest dose activity change, negative = inhibition; active means falling FRET ratio curve, often poorly fitted, with flat reads before Ran was added; inconclusive means other falling curves, or compound fluorescence or quenching; inactive means flat or rising ratio curve;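 further: potency means the concentration at half of the fitted maximal effect; % of control where 0% means no effect; nearly all actives have a fitted effect of over 45% in size; -100% = wells without RanGTP and RCC1; the record marks most hits as doubtful in a second field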
#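 Compounds preincubate 5 min with complex of recombinant Rango and importin beta in PBS with 1 mM DTT. Ran (0.6 uM) loaded with 2 mM GTP plus 0.2 uM RCC1 starts dissociation; FRET is recorded 45 min later.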
# miR-21 FLuc: miR-21 reporter, rising signal; HeLa miR-21 FLuc reporter, luciferase, 48 h; Potency, µM (series often up to 38.3 µM), for the others: at the highest dose reporter change, positive = more light; 340,000 tested, under 10 active; active = well fitted rising curve with a large enough effect; inconclusive = small, poorly fitted or top-dose-only effect; inactive = no such curve, though single readings can be large or run the other way;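 further: % of control where 0% means no effect; miR-21 action dims this reporter so a rising signal means less miR-21 action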
#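 HeLa cells endogenously expressing miR-21, stably carrying CMV-driven firefly luciferase with a downstream miR-21 binding site, 2000 cells/well. Titrations up to approximately 40 uM, 48 hours; luciferase luminescence read.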
# Rango-impB inh: inhibitors of Rango-importin beta complex formation. 340,000 compounds, 0.031% hits. Rango CFP/YFP FRET sensor + importin beta, 45 min. Potency, µM (series often up to 92.2 µM), inactives show at the highest dose inhibition of complex formation. Q14974. AID 540263; active = rising FRET ratio curve, often small or poorly fitted; inconclusive = mostly compound fluorescence or quenching in the first reads; inactive = flat curves in all reads;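 further: potency means the concentration at half of the fitted maximal effect; 0% = DMSO wells and 100% = buffer wells lacking importin beta; nearly all actives have a fitted effect of over 15% in size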
# Target sequence (Q14974 whole entry, looked up): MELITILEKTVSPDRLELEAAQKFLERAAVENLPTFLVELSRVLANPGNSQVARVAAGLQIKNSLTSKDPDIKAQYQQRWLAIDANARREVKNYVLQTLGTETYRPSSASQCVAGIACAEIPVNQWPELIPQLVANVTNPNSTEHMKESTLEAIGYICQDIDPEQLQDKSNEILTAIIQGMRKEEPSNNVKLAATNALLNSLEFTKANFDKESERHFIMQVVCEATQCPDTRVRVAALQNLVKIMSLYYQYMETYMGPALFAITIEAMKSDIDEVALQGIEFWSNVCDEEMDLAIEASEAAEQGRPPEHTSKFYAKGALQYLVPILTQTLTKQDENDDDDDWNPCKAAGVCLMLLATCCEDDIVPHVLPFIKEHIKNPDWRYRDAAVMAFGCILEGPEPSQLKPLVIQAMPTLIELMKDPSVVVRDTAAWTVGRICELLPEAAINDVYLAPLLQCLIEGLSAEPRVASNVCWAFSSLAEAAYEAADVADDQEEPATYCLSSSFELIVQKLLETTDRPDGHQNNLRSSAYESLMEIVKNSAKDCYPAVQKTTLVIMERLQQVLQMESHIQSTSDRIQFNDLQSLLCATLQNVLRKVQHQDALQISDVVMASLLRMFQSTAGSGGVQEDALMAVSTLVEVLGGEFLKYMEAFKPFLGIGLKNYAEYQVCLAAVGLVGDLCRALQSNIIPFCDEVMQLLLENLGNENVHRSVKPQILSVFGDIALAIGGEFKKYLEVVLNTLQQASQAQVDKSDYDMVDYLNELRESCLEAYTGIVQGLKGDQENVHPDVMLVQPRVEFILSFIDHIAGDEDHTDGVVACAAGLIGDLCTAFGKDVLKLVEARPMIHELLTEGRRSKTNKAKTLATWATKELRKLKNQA
#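 Inhibition scored from the CFP 486 nm/YFP 530 nm FRET ratio 45 min after adding 0.125 microM importin beta to 50 nM Rango biosensor preincubated 5 min with compound (room temperature, PBS with DTT, Tween-20, BSA). No-importin wells as positive control.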
# Active calls of the source: *; ? = inconclusive; . = no result given; & = joins results of further samples; [ ] = dose if it differs, or a comment. Only part of the results is shown; the hit share may differ from the screen's.
SMILES,GLA inh pH 4.5,Rango release inh,miR-21 FLuc,Rango-impB inh
COc1ccc(OC)c(NC(=O)COC(=O)Cc2ccc(Br)cc2)c1,-17,-11%,-1%,-4.3%
COc1ccc(OC(C)c2ccc(C#N)c(=O)[nH]2)cc1 (stereo not given),6,5%,0%,-2.3%
Cc1cc(C)nc(SCc2csc(-c3ccccc3)n2)n1,5,-25%,-80%,-1.3%
COc1cc(OC)cc(C(=O)OCC(=O)NC(c2ccccc2)c2ccccc2)c1,.,-1%,.,11%
Cc1ccc(SC[C@H](Cc2ccccc2)N2CCN(C)CCC2=O)cc1,-1,-15%,-7%,-1.4%
CC(=O)Nc1ccc(NC(=S)NC(=O)/C=C/c2ccccc2)cc1,-5,-9%,0%,3.4%
N#Cc1c(NC(=O)CSc2nc3ccccc3c(=O)n2Cc2ccco2)sc2c1CCCC2,6,5%,2%,3.8%
CN(C)S(=O)(=O)c1ccc(C(=O)Nc2cccc(C(=O)O)c2)cc1,3,-15%,-5%,-0.5%
O=C(CSc1nc2c(c(=O)[nH]1)CCC2)Nc1ccccc1Cl,.,-1%,0%,-2.7%
CC(C)Cc1csc(NC(=O)c2ccc(Br)cc2)c1C(=O)O,-4,10%,8%,2.9%
COc1cc(Br)cc(-c2nc3c(c(=O)[nH]c(=O)n3Cc3ccccc3)n2C)c1O,-2,-9%,-25%,0.4%
COC(=O)c1ccccc1NC(=O)Cn1c(=O)n(CCC(=O)NC2CCN(Cc3ccccc3)CC2)c(=O)c2ccccc21,4,2%,4%,7.2%
O=C(Cn1ncc(Cl)c(Cl)c1=O)NC1CCS(=O)(=O)C1 (stereo not given),10,0%,1%,-6.7%
CCOc1cccc(C=Nc2cc(C)cc(C)c2O)c1O,-10,-11%,-2%,0.4%
CCOCCCn1c(=NC(=O)c2cccnc2)c(C(=O)OCC)cc2c(=O)n3ccccc3nc21,14,?,0%,?
CC(=O)NCCc1c[nH]c2ccc(O)cc12,0&11,2%,.,-0.8%
COc1ccc2cc(/C(C)=N/NC(=O)C3CC3)ccc2c1,7,-20%,-47%,0.7%
Cc1onc(-c2ccccc2Cl)c1C(=O)Nc1nnc(-c2ccc(Br)cc2)s1,4,-3%,-4%,-0.4%
COc1ccc(Cn2c(O)c(/C=N/NC(=O)c3cccnc3)c3ccccc3c2=O)cc1,-21,?,15%,?
COc1ccc(OC)c(CN2CCSCC2)c1,.,-1%,-1%,3.2%
CCc1nnc(NS(=O)(=O)c2ccc(NC(=O)c3cccc(Br)c3)cc2)s1,.,15%,-4%,-4.0%
C=CCN1C(=O)C(CC(=O)Nc2ccc(C)cc2)SC1=Nc1c(C)n(C)n(-c2ccccc2)c1=O (stereo not given),2,12%,0%,0.4%
COc1ccc(-c2csc(N3CCN(c4cc(C)nc5ccccc45)CC3)n2)cc1OC,-2,4%,?,-1.5%
COC(=O)c1sccc1NC(=O)c1cnc2cc(C)nn2c1C,9,-1%,4%,0.1%
O=C(N/N=C1/CCS(=O)(=O)c2ccc(F)cc21)c1cccnc1,3,-2%,-2%,0.3%
COc1ccccc1NCc1nnc(SCC(=O)N/N=C/c2ccco2)n1-c1ccc(Cl)cc1Cl,-13,-7%,-2%,1.1%
CC1=C(/C=C/C(C)=C/C=C/C(C)=C/C(=O)Nc2ccc(O)cc2)C(C)(C)CCC1,-7&-29&1,-6%&10%,.,?
Cc1cc(-c2ccccc2)cc(C)n1,.,5%,.,3.1%
CC(=O)OCC1=C(C(=O)O)N2C(=O)C(NC(=O)C(C)Cn3cc(Cl)cn3)C2SC1 (stereo not given),-6[21.1 µM],6%,-3%,0.7%
Cc1cc(C)nc(NS(=O)(=O)c2ccc(N=NN(C)C)cc2)n1,.,0%,-7%,3.6%
O=C(O)CC1S/C(=N/N=C/c2ccccn2)NC1=O (stereo not given),-1,-14%,-4%,-5.4%
O=C(C(=O)N1CCN(c2ccc(F)cc2)CC1)N1CCCCC1,4,-27%,2%,2.6%
Cc1cc2ncn(/N=C/c3ccc([N+](=O)[O-])o3)c2cc1C,-4,0%,11%,58µM*
Cc1ccccc1OCC(=O)NCCCNC(=O)c1ccccn1,.,31%,-1%,-1.9%
CCOc1ccc(NC(=O)Cn2c(=O)n(CC3CCCO3)c(=O)c3ccccc32)cc1 (stereo not given),-4[21.1 µM],3%,-5%&-2%,-0.3%
Cc1ccc(S(=O)(=O)N2CCOCC2)cc1NC(=O)CNC1CCCC1,2,1%,1%,0.2%
CCOc1ccc(CNC(=O)Cn2ccc3cc(S(=O)(=O)N4CCCC4)ccc32)cc1,.,11%,6%,-3.9%
COc1cc2[nH]c3c(Cl)ncnc3c2cc1OC,11,-22%,-3%,-4.5%
O=C(CC1Sc2ccccc2NC1=O)NCc1cccc(Cl)c1 (stereo not given),-2,7%,0%,-1.6%
COC(=O)COc1ccc(C(C2C(=O)CC(C)(C)CC2=O)C2C(=O)CC(C)(C)CC2=O)cc1,.,2%,0%,5.4%

# 13 structures from above, ordered by molar mass, highest first:
SMILES,GLA inh pH 4.5,Rango release inh,miR-21 FLuc,Rango-impB inh
COc1ccccc1NCc1nnc(SCC(=O)N/N=C/c2ccco2)n1-c1ccc(Cl)cc1Cl,-13,-7%,-2%,1.1%
C=CCN1C(=O)C(CC(=O)Nc2ccc(C)cc2)SC1=Nc1c(C)n(C)n(-c2ccccc2)c1=O (stereo not given),2,12%,0%,0.4%
Cc1onc(-c2ccccc2Cl)c1C(=O)Nc1nnc(-c2ccc(Br)cc2)s1,4,-3%,-4%,-0.4%
CCc1nnc(NS(=O)(=O)c2ccc(NC(=O)c3cccc(Br)c3)cc2)s1,.,15%,-4%,-4.0%
COc1cc(Br)cc(-c2nc3c(c(=O)[nH]c(=O)n3Cc3ccccc3)n2C)c1O,-2,-9%,-25%,0.4%
COc1ccc(-c2csc(N3CCN(c4cc(C)nc5ccccc45)CC3)n2)cc1OC,-2,4%,?,-1.5%
COc1ccc(Cn2c(O)c(/C=N/NC(=O)c3cccnc3)c3ccccc3c2=O)cc1,-21,?,15%,?
CCOc1ccc(NC(=O)Cn2c(=O)n(CC3CCCO3)c(=O)c3ccccc32)cc1 (stereo not given),-4[21.1 µM],3%,-5%&-2%,-0.3%
CC1=C(/C=C/C(C)=C/C=C/C(C)=C/C(=O)Nc2ccc(O)cc2)C(C)(C)CCC1,-7&-29&1,-6%&10%,.,?
CC(C)Cc1csc(NC(=O)c2ccc(Br)cc2)c1C(=O)O,-4,10%,8%,2.9%
Cc1cc(C)nc(NS(=O)(=O)c2ccc(N=NN(C)C)cc2)n1,.,0%,-7%,3.6%
Cc1cc2ncn(/N=C/c3ccc([N+](=O)[O-])o3)c2cc1C,-4,0%,11%,58µM*
Cc1cc(-c2ccccc2)cc(C)n1,.,5%,.,3.1%

# (next part)
SMILES,GLA inh pH 4.5,Rango release inh,miR-21 FLuc,Rango-impB inh
CN(C)c1ccc(N2C(=O)CC(Nc3ccc(N4CCOCC4)cc3)C2=O)cc1 (stereo not given),-10,11%,-1%,-0.4%
C=C(C)CN1CCN(c2c(CCC#N)c(C)c(C#N)c3nc4ccccc4n23)CC1,19,?,-5%,?
NS(=O)(=O)c1ccc(CCNC(=O)c2ccc(C#CC3(O)CCCCC3)cc2)cc1,-13,11%,24%,2.3%
COc1ccc(/C=N/NC(=O)c2nc(-c3ccccc3)cc(-c3ccccc3)n2)cc1,-7,-6%,-8%,1.1%
COc1ccc(C(=O)N/C(=C\c2ccc3c(c2)OCO3)C(=O)N2CCOCC2)cc1,.,-3%,-1%,4.0%
CCOC(=O)c1c(C(=O)OCC)c(C)n(Cc2cc(OC)c(OC)c(OC)c2)c1C,5,3%,-11%,-0.3%
Cc1ccc(C(=O)N2CCN(Cc3ccc4c(c3)OCO4)CC2)cc1C,.,-9%,4%,1.1%
Cc1ccc(S(=O)(=O)NC(=O)COc2ccccc2C)cc1,1,6%,-3%,-0.5%
Cc1ccc(N=C2C(=O)Nc3ccccc32)cc1C,.,-20%,-8%,1.7%
Cc1cccc(NC(NC(=O)c2ccccn2)C(Cl)(Cl)Cl)c1 (stereo not given),6,8%,1%,?
O=C1NC[C@H](c2ccccc2)OC(=O)[C@@H](Cc2ccc(F)cc2)CC/C=C/C[C@@H]1CC(=O)N(CCO)Cc1ccccc1,.,1%,.,?
CC[N+](C)(C)CCN(Cc1ccc(Cl)cc1)c1ccccn1,-1,1%,11%,-0.1%
CCS(=O)(=O)N1CCN=C1SCc1cccc(F)c1,.,-9%,-14%,-2.2%
CCN(CC)c1ccc(/C=N/NC(=O)CNC(=O)c2cccs2)cc1,.,-23%,-18%,?
C=CC[C@@H](CC(=O)N(CCO)Cc1ccccc1)C(=O)NC[C@H](OC(=O)[C@@H](CC=C)Cc1ccc(F)cc1)c1ccccc1,.,-10%,.,-5.0%
Cc1cc(C(=O)OCC(=O)c2ccc3c(c2)OCCO3)c(C)o1,-2,21%,-40%,-3.5%
COc1ccc2c(CC(=O)OCC(=O)Nc3sc4c(c3C#N)CCC(C)C4)coc2c1 (stereo not given),10,5%,-8%,?
CCCNC(=O)COC(=O)c1ccc(Cl)c(S(=O)(=O)N2CCCC2)c1,1,-7%,-6%,6.1%
COc1ccc(NC(=O)c2ccc(S(=O)(=O)N(C)C)cc2)cc1OC,6,1%,-10%,1.6%
COc1ccccc1CN1C(=O)C2CC=CCC2C1=O (stereo not given),3,-10%,-2%,-2.4%
NC(=O)CC(NC(=O)Cc1cccc2ccccc12)c1ccc(N2CCc3ccccc3C2)c([N+](=O)[O-])c1 (stereo not given),4,?,0%,0.9%
CC(C1CC1)N(Cc1ccccc1)C(=S)Nc1ccccc1 (stereo not given),13,1%,-5%,4.0%
O=C(Nc1csnn1)c1csnn1,-29,-4%,0%,-1.0%
Cc1ccccc1NC(=S)NCCO,9,3%,3%,0.0%
CC(OC(=O)/C=C/c1ccco1)C(=O)Nc1cccc([N+](=O)[O-])c1 (stereo not given),6,17%,26%,-0.4%
Cc1ccc(SCC(=O)Nc2ccc3c(c2)C(=O)N(C)C3=O)cc1,.,-21%,2%,0.0%
CCOC(=O)C1(Cc2ccccc2C)CCCN(C(=O)c2ccc(COC)o2)C1 (stereo not given),.,5%,-36%,-2.0%
CCSc1nnc2ccc(-c3ccc(OC)c(OC)c3)nn12,.,5%,-75%,-0.6%
Cc1ccc(S(=O)(=O)NCCC(=O)Nc2nnc(C3CC3)s2)cc1C,-4,2%,0%,-1.5%
CCSc1nnc(NC(=O)CN2C(=O)N(C)C3(CCCCC3)C2=O)s1,.,-20%,.,1.6%
COC(=O)[C@@]12CCCN1[C@H](c1ccc(-c3ccc(F)cc3)cc1)[C@H]1C(=O)N(C)C(=O)[C@H]12,.,-15%,.,-0.8%
NC(=O)CC(NC(=O)Cc1cccc2ccccc12)c1ccc(NCc2ccc(F)c(F)c2)c([N+](=O)[O-])c1 (stereo not given),6,12%,-5%,6.7%
O=C(Nc1ccc(F)cc1)Nc1ccccc1NS(=O)(=O)c1cccs1,0,?,-1%,?
COCCn1c(-c2ccc(OC(F)(F)C(F)C(F)(F)F)cc2)nc2c1c(=O)[nH]c(=O)n2CC(C)C (stereo not given),-6,4%,13%,0.0%
Cc1cc(C)c(NC(=O)CNC(=O)c2ccc(-n3cncn3)c([N+](=O)[O-])c2)c(C)c1,.,-2%,.,-4.6%
Cc1nn(CC(=O)NCCc2ccccc2)c(C)c1[N+](=O)[O-],-7,-5%,-11%,0.3%
CCC(CO)Oc1cc(NC(=O)c2ccc(N)cc2)c2ncn(C(C)C)c2c1 (stereo not given),.,21%,.,-0.4%
O=C(O)c1cccc(Nc2c([N+](=O)[O-])c(=O)oc3ccccc23)c1,-9,-18%,-34%,-2.0%
COc1ccc(-c2cc(C#N)nc(N3CCN(C)CC3)n2)cc1,10,5%,6%,4.9%
Cc1ccc(C2CC(=O)NC(SCC(=O)Nc3nccs3)=C2C#N)cc1 (stereo not given),0,19%,-5%,-0.7%
CCOC(=O)c1ccc(NC(=O)C2CCN(C(=O)c3ccc(OC)c(OC)c3)CC2)cc1,0,-6%,1%,3.7%
NC(=O)CSc1nnc(Cn2c(=O)sc3ccccc32)n1-c1ccccc1,1,1%,-9%,-2.8%
